Screening results: PubChem, National Center for Advancing Translational Sciences (NCATS)
Rango release inh = inhibition of RanGTP-driven Rango-importin beta dissociation. O95149+P62826. Biochemical FRET Rango-importin beta, RanGTP-induced dissociation. Potency, µM (top dose mostly 46.1 µM), for the others: top-dose activity change, negative = inhibition. 340,000 tested, 0.071% active. AID 540253; active means falling FRET ratio curve, often poorly fitted, with flat reads before Ran was added; inconclusive means other falling curves, or compound fluorescence or quenching; inactive means flat or rising ratio curve;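 note: potency is the fitted concentration of half-maximal effect; % of control where 0% means no effect; nearly all actives have a fitted effect of over 45% in size; -100% = wells without RanGTP and RCC1; the record marks most hits as doubtful in a second field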
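Recombinant Rango FRET biosensor (EYFP–snurportin 1 IBB–cerulean CFP10) at 0.1 uM premixed with 0.25 uM importin beta in PBS, 1 mM DTT, 0.02% Tween-20, 0.1% BSA. Compound added 5 min; RanGTP-RCC1 (0.6 uM Ran, 2 mM GTP, 0.2 uM RCC1) then triggers release, read at 45 min.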
miR-21 reporter = miR-21 reporter, rising signal; HeLa miR-21 FLuc reporter, luciferase, 48 h; Potency, µM (highest dose often 38.3 µM), without a hit: at the top dose reporter change, positive = more light; 340,000 tested, under 10 active; active = well fitted rising curve with a large enough effect; inconclusive = small, poorly fitted or top-dose-only effect; inactive = no such curve, though single readings can be large or run the other way;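 note: % of control where 0% means no effect; miR-21 action dims this reporter so a rising signal means less miR-21 action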
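Compounds were titrated across several concentrations (up to approximately 40 uM) and incubated 48 hours with HeLa miR-21-FLuc reporter cells (miR-21 target sequence downstream of FLuc, endogenous miR-21). Readout was firefly luciferase luminescence after lytic detection reagent.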
Rango-impB inh = Rango-importin beta binding inhibition | Rango CFP/YFP FRET sensor + importin beta, 45 min | Potency, µM (doses to about 92.2 µM), for inactives: at the top dose inhibition of complex formation | 340,000 tested, 0.031% active | AID 540263; active = rising FRET ratio curve, often small or poorly fitted; inconclusive = mostly compound fluorescence or quenching in the first reads; inactive = flat curves in all reads;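 note: potency is the fitted concentration of half-maximal effect; 0% = DMSO wells and 100% = buffer wells lacking importin beta; nearly all actives have a fitted effect of over 15% in size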
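FRET biosensor Rango (snurportin 1 IBB between N-terminal EYFP and C-terminal Cerulean), 50 nM in PBS/1 mM DTT/0.02% Tween-20/0.1% BSA, preincubated 5 min RT with compound; 0.125 microM importin beta added, 45 min RT, CFP/YFP FRET ratio read.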
GLA inh pH 4.5 = inhibitors of human alpha-galactosidase A at pH 4.5. AID 1467. purified enzyme, 4-MU-alpha-Gal fluorescence, pH 4.5. activity change, negative = inhibition, % at 105 µM. P06280. 230,000 tested, under 10 active; inconclusive = small, poorly fitted or top-dose-only inhibition, or a rising curve; inactive = flat fitted curve, though single readings scatter; no compound was filed as active;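 note: 0% = full activity with enzyme and -100% = basal without enzyme; dose as in the result columns while the protocol names 77 µM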
Target sequence (P06280 whole entry, looked up): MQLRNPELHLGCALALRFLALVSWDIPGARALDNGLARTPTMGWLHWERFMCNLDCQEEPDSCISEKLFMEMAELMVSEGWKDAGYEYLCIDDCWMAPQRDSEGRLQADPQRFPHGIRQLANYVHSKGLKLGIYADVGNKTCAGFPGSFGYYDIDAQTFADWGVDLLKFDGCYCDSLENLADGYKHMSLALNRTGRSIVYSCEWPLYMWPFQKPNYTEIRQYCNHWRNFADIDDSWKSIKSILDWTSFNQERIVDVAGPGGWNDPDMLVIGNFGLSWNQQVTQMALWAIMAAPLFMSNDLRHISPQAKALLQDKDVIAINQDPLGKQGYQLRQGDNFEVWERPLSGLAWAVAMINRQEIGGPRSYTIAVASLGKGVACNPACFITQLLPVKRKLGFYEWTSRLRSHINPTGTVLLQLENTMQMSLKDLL
Starred values were filed as active, the others as inactive; ? = inconclusive; · = no result given.

SMILES | Rango release inh | miR-21 reporter | Rango-impB inh | GLA inh pH 4.5
O=C(CN(C(=O)c1csnn1)c1ccc(F)cc1)NCc1ccc(F)cc1 | 1% | -7% | 2.1% | 3
COc1ccc(NC(=O)CN(C)S(=O)(=O)c2ccc(Cl)cc2)cn1 | -2% | · | -1.7% | ·
CC1(C)CC(=O)C(C(C#Cc2ccccc2)C2=C(O)CC(C)(C)CC2=O)=C(O)C1 | -3% | -35% | 0.3% | 10
Cn1cc(C(=O)c2ccc(Cl)cc2Cl)cc1C=O | 1% | 4% | -0.5% | -12
CCN(CC)S(=O)(=O)c1cccc(NC(=O)CCNC(=O)c2ccccc2Cl)c1 | 1% | 0% | -2.8% | ·
O=C(Cn1ncc2c3ccccc3n(Cc3ccccc3F)c2c1=O)NCCCN1CCCC1=O | 11% | 14% | 0.0% | ·
CCC(C)NC(=O)NC1C(NC(=O)NC(C)CC)N(C)C(=O)N1C (configuration not stated) | 0% | 1% | 0.0% | 1
Cc1ccc(S(=O)(=O)NCc2cccnc2)cc1C(=O)NC1CCCCC1 | -2% | · | 5.0% | ·
COc1cc(C2C(C#N)=C(N)OC3=C2C(=O)CCC3)ccc1OC(=O)N1CCOCC1 (configuration not stated) | 3% | -2% | 1.0% | 4
O=C(N/N=C/C(Br)=C\c1ccccc1)c1ccco1 | -1% | -43% | 5.1% | -8
O=C(Nc1nn[nH]n1)c1ccc(S(=O)(=O)N2CCCCC2)cc1 | -7% | 1% | 0.4% | 0
Cc1cccn2c(=O)c3cc(C(=O)NCc4ccco4)c(=N)n(C(C)C)c3nc12 | ? | -3% | ? | 7
CCc1ccccc1NC(=O)N1CCCc2ccccc21 | -12% | -23% | -2.3% | ·
O=C(CN1CCC(c2nc3ccccc3s2)CC1)NCc1cccs1 | -9% | 18% | 3.0% | 10
Cc1[nH]c2ccccc2c1C(=O)CSc1ccccc1 | -14% | -51% | 2.0% | -7
COc1cc(NS(C)(=O)=O)ccc1Nc1c2ccccc2nc2ccccc12 | ? | · | ? | 15
O=C(Nc1c(C(=O)N2CCOCC2)oc2ccccc12)c1cccc([N+](=O)[O-])c1 | 3% | -3% | 4.0% | ·
CN(C(=O)CN1C(=O)S/C(=C\c2ccccc2F)C1=O)C1CCS(=O)(=O)C1 (configuration not stated) | -9% | 1% | 1.6% | ·
NC(=O)c1cccc(CC(=O)c2ccccc2)c1 | -8% | -9% | -1.2% | -2
CC12CCC(C(=O)NCCCN3CCOCC3)(C(Br)C1=O)C2(C)C (configuration not stated) | -4% | 3% | 0.0% | -1
COc1ccc(N2CC(C(=O)Nc3c4c(nn3-c3ccc(OC)cc3)CS(=O)(=O)C4)CC2=O)cc1 (configuration not stated) | -12% | -1% | -0.5% | ·
COC(=O)c1ccc(NC(=S)N2CCN(C(=O)c3ccco3)CC2)cc1 | 7% | -9% | -4.2% | ·
Cc1nc(C)c(-c2ccn(S(=O)(=O)c3ccc(Cl)cc3)n2)o1 | 4% | -11% | 1.6% | -1
O=C(OCC(=O)c1ccccc1Br)c1ccccn1 | 1% | -13% | -1.8% | 1
O=C(Nc1nnc(-c2ccccc2)s1)c1cccc(S(=O)(=O)N2CCOCC2)c1 | 5% | -7% | 1.0% | -9
O=C(Nc1ccc(F)cc1)c1cc(-c2ccccn2)nc2c(Cl)cccc12 | -15% | -1% | 0.3% | ·
O=C1CCCN1CCCNc1nc2c(S(=O)(=O)c3ccc(Br)cc3)nnn2c2ccccc12 | 14% | -2% | -0.9% | ·
COC(=O)c1ccc(NC(=O)COc2ccccc2OC)cc1 | -4% | -16% | -0.3% | -3
COC(=O)c1ccc(CSc2nc3ccccc3s2)o1 | 6% | -49% | -2.4% | -5
Cn1cc(S(=O)(=O)NC[C@H]2O[C@@H](n3cnc4c(N)ncnc43)[C@H](O)[C@@H]2O)cn1 | 2% | · | -3.6% | ·
Cc1occc1C(=O)NNC(=O)c1ccccc1F | -14% | -29% | 2.1% | 7
O=S1(=O)CCO[C@H]2Cc3ccccc3[C@H]2N1Cc1cccc(C(F)(F)F)c1 | 45% | 6% | 8.4% | ·
N/C(=N\OC(=O)Cc1ccccc1)c1ccccn1 | 4% | -44% | -1.7% | -1
CCc1cccc(C)c1NC(=O)CN(C)S(=O)(=O)c1ccc(-c2ccc(=O)[nH]n2)s1 | 27% | -10% | 4.2% | ·
O=C(c1ccccc1)[C@H]1CC=CC[C@H]1C(=O)O | 3% | -1% | 3.4% | 4
Fc1ccc(NC(=S)Nc2cccnc2)cc1 | 1% | -4% | 0.3% | 8
CC1=NN(c2ccc(Br)cc2)C(=O)/C1=C/c1ccc(-c2ccccc2C(=O)O)o1 | 0% | 4% | -0.2% | ·
COc1ccc(/C=C/C(=O)NCC(=O)N/N=C(/C)c2ccc(Cl)cc2)cc1 | -2% | 0% | 6.7% | ·
N#C/C(=C\c1ccc(Cl)s1)C(=O)N1CCN(c2ccccc2)CC1 | -3% | -4% | -2.6% | 2
CCOc1cc(N2CCOCC2)c(OCC)cc1NC(=O)c1ccc(OC(C)C)cc1 | 1% | -2% | -1.7% | -1
C/C(N)=C(/C#N)C(=O)COC(=O)C(c1ccccc1)c1ccccc1 | 0% | 2% | -1.7% | 2
Cc1nc(CS(=O)c2ccc(Cl)cc2)cc(N2CCOCC2)n1 (configuration not stated) | 35% | -5% | ? | -9
CCSc1nc2ccccc2n1Cc1ccccc1F | -6% | -26% | -0.1% | -7
CCOC(=O)C(=O)NCC(c1ccco1)S(=O)(=O)c1cccs1 (configuration not stated) | ? | · | -2.8% | ·
CCCC[n+]1ccn(-c2nc3ccccc3nc2[N-]S(=O)(=O)c2ccc(Br)cc2)c1 | -19% | -7% | ? | 12
CCN(CC(=O)Nc1c(F)cccc1F)C(=O)Cc1csc(-c2ccccc2)n1 | 0% | · | -2.8% | ·
CCN(Cc1cc2ccccc2[nH]c1=O)C(=O)c1cccc([N+](=O)[O-])c1 | 20% | -7% | -0.2% | 0
COc1ccc(Cc2nnc(-c3ccc(F)cc3)o2)cc1OC | 0% | -17% | -1.9% | -12
CCN1CCN(c2ccc(S(=O)(=O)N3CCCCC3)cc2NC(=O)CC(C)c2ccccc2)CC1 (configuration not stated) | 1% | · | -0.9% | ·
O=C1C2C3C=CC(C4CC34)C2C(=O)N1/N=C/c1ccc(-c2ccccc2[N+](=O)[O-])o1 (configuration not stated) | -14% | -12% | -0.6% | -6
O=C(Nc1cccc(C(F)(F)F)c1)NC1CCN(S(=O)(=O)c2ccc(F)cc2)CC1 | 5% | 10% | 0.1% | 4
COC(=O)c1sc2nc(C)nc(SCC(=O)Nc3sccc3C(N)=O)c2c1C | 8% | · | 3.4% | ·
CCCOC(=O)c1ccc(NC(=O)Cc2cccs2)cc1 | -18% | -50% | -3.2% | ·
Cn1c(=O)c2c(SCC(=O)N3CCCc4ccccc43)nc(CC(C)(C)C)nc2n(C)c1=O | 0% | -3% | 0.0% | ?
COc1cccc(-c2nnc(SCC(=O)Nc3cc(C)on3)n2C)c1 | -15% | -2% | -1.6% | -2
COCC(C)n1c(SCc2nc3ccccc3c(=O)[nH]2)nc2ccccc2c1=O (configuration not stated) | -12% | 14% | -4.7% | 0
CCOc1ccc(/C=C2\SC(=S)N(CC(=O)NCCCN3CCOCC3)C2=O)cc1 | ? | -14% | ? | ·
CC1(C)Cc2nc3[nH]c(=S)n(-c4ccccc4)c(=O)c3cc2CO1 | ? | · | ? | ·
CCN(CC)S(=O)(=O)c1ccc(N2CCCC2)c(NS(=O)(=O)c2ccccc2)c1 | -4% | -9% | 0.9% | -3
COc1ccc(NC(=O)COC(=O)CNS(=O)(=O)c2ccccc2)cc1OC | 1% | -1% | -0.3% | -7

Structures from the list above containing a nitro group on carbon, in the order listed:
SMILES | Rango release inh | miR-21 reporter | Rango-impB inh | GLA inh pH 4.5
O=C(Nc1c(C(=O)N2CCOCC2)oc2ccccc12)c1cccc([N+](=O)[O-])c1 | 3% | -3% | 4.0% | ·
CCN(Cc1cc2ccccc2[nH]c1=O)C(=O)c1cccc([N+](=O)[O-])c1 | 20% | -7% | -0.2% | 0
O=C1C2C3C=CC(C4CC34)C2C(=O)N1/N=C/c1ccc(-c2ccccc2[N+](=O)[O-])o1 (configuration not stated) | -14% | -12% | -0.6% | -6

More records:
SMILES | Rango release inh | miR-21 reporter | Rango-impB inh | GLA inh pH 4.5
Oc1oc(C=Nc2ccc(F)cc2F)c2ccccc12 | -1% | -9% | 7.3% | 12
CC(C)C(=O)NS(=O)(=O)c1ccc(N)cc1 | -3% | 0% | -0.6% | 0
CCCCN(C(=O)COC(=O)CSc1cc(C)c2ccccc2n1)c1c(N)n(CCC)c(=O)[nH]c1=O | 0% | 0% | -5.2% | ·
CCOc1ccc(-n2c(=O)c3sccc3n(CC(=O)NC3CCCCC3)c2=O)cc1 | -6% | 3% | 6.7% | ·
S=C(NCc1ccco1)Nc1ccccn1 | 7% | -7% | -0.8% | -7
CC1(C)CC(=O)C2=C(C1)Oc1ncn(Cc3ccco3)c(=N)c1C2c1ccccc1 (configuration not stated) | 25% | 11% | -1.1% | -7
Cc1ccnc(NC(=O)COc2ccc3oc4c(c3c2)CCCC4)c1 | 0% | -31% | 0.3% | -5
Cc1ccc(C)c(N2CCN(C(=O)CCc3nc(-c4ccccc4C(F)(F)F)no3)CC2)c1 | -11% | · | -1.2% | ·
COC(=O)c1nn(-c2ccccc2)c2nnc(Cc3ccc(C)cc3)c(=O)n12 | 5% | -10% | 2.8% | -8
O=C(O)c1ccc(N2C(=O)c3[nH]nc(-c4ccccc4)c3C2c2ccccc2)cc1 (configuration not stated) | 22% | 0% | -1.5% | 16
O=C(/C=C/c1cn(-c2ccccc2)nc1-c1cccnc1)NCCN1CCOCC1 | 5% | 1% | 0.8% | 9
CCCn1c(SCC(=O)c2c[nH]c3ccccc23)nnc1-c1ccncc1 | -9% | 1% | ? | 3
Cc1nc(S(=O)(=O)c2ccc(Cl)cc2)c(NCc2ccccc2)o1 | 5% | -1% | -1.2% | 4
Fc1cccc(Cn2cc(C(=S)N3CCCCC3)c3ccccc32)c1 | -10% | -2% | 1.1% | -7
COc1ccc(NS(=O)(=O)c2ccc(OCC(=O)N3CCOCC3)cc2)cc1 | 19% | -1% | -5.8% | -2
COC(=O)C1N2C(=O)[C@@H](NC(=O)COc3ccccc3)[C@H]2SC1(C)C (some centres not stated) | 18% | · | 4.9% | ·
O=C(O)C1CCCCN1C(=O)c1ccc(S(=O)(=O)N2CCCC2)cc1 (configuration not stated) | 6% | · | -0.9% | ·
Cc1cc(NC(=O)CSc2nc3c(C)cccc3cc2C#N)no1 | 1% | 9% | 0.3% | ·
Cn1c(NCc2ccccc2)nc2c1c(=O)n(Cc1ccccc1)c(=O)n2C | 2% | 1% | -1.1% | -2
Fc1ccc(NC(=S)N2N=CCC2c2ccccc2)cc1 (configuration not stated) | 1% | -34% | 0.4% | -3
Cc1ccc(/C=C/C(=O)Nc2ccc(N(C)C)cc2)o1 | 43% | -48% | -0.6% | 7
Cc1cc(S(=O)(=O)N2CCCOC2CNC(=O)C(=O)NCCc2ccco2)ccc1F (configuration not stated) | 1% | 3% | -2.4% | ·
CCn1c(-c2cc(C3CC3)nc3ccccc23)n[nH]c1=S | -11% | -5% | -0.7% | -1
CCCOc1ccc(OCCn2nc(C(=O)O)c3ccccc3c2=O)cc1 | -7% | -12% | 0.2% | -16
Cc1ccc(/C=C/C(=O)OCC(=O)c2ccc3c(c2)NC(=O)CO3)o1 | 1% | · | ? | ·
CC(C)CN(CC(C)C)C(=S)Nc1ccc(Cl)cc1 | ? | 23% | 1.2% | -9
CCN1CCN(c2ccc(S(=O)(=O)N3CCCCC3)cc2NC(=O)c2ccccc2)CC1 | 24% | · | 15% | ·

Record cards, as listed above:
Listed for Fc1ccc(NC(=S)N2N=CCC2c2ccccc2)cc1 (configuration not stated) = Rango release inh = 1%; miR-21 reporter = -34%; Rango-impB inh = 0.4%; GLA inh pH 4.5 = -3
Listed for COC(=O)C1N2C(=O)[C@@H](NC(=O)COc3ccccc3)[C@H]2SC1(C)C (some centres not stated) = Rango release inh = 18%; miR-21 reporter = ·; Rango-impB inh = 4.9%; GLA inh pH 4.5 = ·

Only part of the results is shown. The share of hits here may be higher or lower than overall.
